Bioassay records as filed in PubChem BioAssay.
PINK1 modulator = A Quantitative High throughput Screen to Identify Chemical Modulators of PINK1 Expression. Potency, µM (doses to about 76.6 µM), for the others: at the top dose activation (PINK1 increase), hits mostly activators. PINK1 immunofluorescence, high-content cytometry, 24 h. AID 624263, 2012. actives 0.2% (n = 410,000); active = well fitted activation curve with a large enough effect; inconclusive = small, poorly fitted or top-dose-only effect; inactive = flat fitted curve, though single readings scatter; cell line not stated here;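 also: potency is read from the fitted curve at half-maximal effect; % of control where 0% means no effect; nearly all actives have a fitted effect of over 65% in size; a mitochondrial uncoupler was the plate control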
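Stable cell line, 250 cells/well, 12 h attachment; compounds pinned at 5 concentrations, 24 h; CCCP control. Fixed with nuclear dye, primary antibodies 12 h at 10 degrees C, secondary plus cell stain; laser-scanning cytometer read.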
TRPML1 agonist = qHTS for Agonists of the Human Mucolipin Transient Receptor Potential 1 (TRPML1) | Mucolipin-1 (Homo sapiens), Q9GZU1 | TRPML1-expressing cells, Ca2+ dye fluorescence, FDSS; host cell line not named in the record; reference of the full effect not given here | activation, % (no concentration beside the values) | actives 0.12% (n = 410,000) | AID 624414, 2012; in the data active = activation above about 50%; inconclusive = about 30% to 50%; inactive = below about 30%; also: 0% is about no effect; the text of the record puts the active cut at 80%
Target sequence (Q9GZU1 whole entry, looked up): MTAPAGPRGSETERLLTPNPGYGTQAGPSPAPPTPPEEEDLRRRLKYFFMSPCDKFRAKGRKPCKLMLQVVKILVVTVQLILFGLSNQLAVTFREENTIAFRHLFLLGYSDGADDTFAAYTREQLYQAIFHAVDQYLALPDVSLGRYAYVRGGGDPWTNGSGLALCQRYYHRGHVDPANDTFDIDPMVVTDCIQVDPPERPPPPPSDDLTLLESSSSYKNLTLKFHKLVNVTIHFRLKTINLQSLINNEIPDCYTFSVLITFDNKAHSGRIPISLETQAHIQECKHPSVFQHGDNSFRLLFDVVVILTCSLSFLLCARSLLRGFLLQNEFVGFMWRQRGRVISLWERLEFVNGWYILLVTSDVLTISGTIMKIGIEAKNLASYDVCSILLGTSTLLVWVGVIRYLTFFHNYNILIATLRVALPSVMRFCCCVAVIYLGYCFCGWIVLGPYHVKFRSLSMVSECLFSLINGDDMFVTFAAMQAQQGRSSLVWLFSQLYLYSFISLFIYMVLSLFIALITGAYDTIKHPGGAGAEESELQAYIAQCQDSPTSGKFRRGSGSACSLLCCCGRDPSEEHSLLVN
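TRPML1-DL cells, Tet-induced overnight (~16 h, 37 degrees C), loaded 45-90 min at room temperature with Ca8 no-wash calcium dye plus quencher. FDSS fluorescence: 10 s baseline, compound pin-transfer, 110 s agonist read, then EC80 54-4 (4uM final) and 110 s antagonist read.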
CtBP-E1A blk = qHTS Assay for Inhibitors of the CtBP/E1A Interaction; AID 651724, 2012; actives 0.49% (n = 340,000); AlphaScreen GST-E1A/His-CtBP binding, 1536-well; stronger effect = lower value; control for the full effect not named in the record; activity change, % (concentration not given with the values); CtBP / adenovirus E1A interaction (AlphaScreen); in the data active means activity change below about -65%; inconclusive means about -30% to -65%; inactive means above about -30%; also: % is scaled to controls: 0 for no effect and ±100 for the full control effect
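GST-E1A and His-tagged CtBP (125 nM each as 5X stock) were preincubated with pin-transferred compound for 2 h at 37 °C in the dark, then glutathione donor and nickel acceptor beads were added for 1 h before AlphaScreen reading.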
D2 ag = Beta-Arrestin HTS for Positive Allosteric Modulators of the Human D2 Dopamine Receptor: Agonists. activation, % (test concentration not listed). actives 0.084% (n = 360,000). D(2) dopamine receptor (Homo sapiens), P14416. DiscoveRx PathHunter D2 beta-arrestin, luminescence, 90 min; 100% = 57 uM dopamine signal; in the data active = activation above about 40%; inconclusive = about 15% to 40%; inactive = below about 15%; also: compound concentration not given in the record; the text of the record calls up to 30% inactive
Target sequence (P14416 whole entry, looked up): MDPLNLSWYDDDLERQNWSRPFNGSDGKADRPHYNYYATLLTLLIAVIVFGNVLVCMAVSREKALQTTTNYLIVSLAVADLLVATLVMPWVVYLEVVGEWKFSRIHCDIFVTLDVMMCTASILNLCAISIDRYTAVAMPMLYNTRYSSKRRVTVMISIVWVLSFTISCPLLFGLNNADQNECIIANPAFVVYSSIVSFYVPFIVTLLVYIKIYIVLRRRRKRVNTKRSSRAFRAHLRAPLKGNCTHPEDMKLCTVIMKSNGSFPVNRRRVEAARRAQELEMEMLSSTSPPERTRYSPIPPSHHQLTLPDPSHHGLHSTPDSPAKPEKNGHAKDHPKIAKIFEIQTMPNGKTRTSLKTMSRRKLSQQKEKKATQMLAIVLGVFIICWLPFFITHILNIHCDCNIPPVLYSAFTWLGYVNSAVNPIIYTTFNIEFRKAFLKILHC
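Agonist mode: compounds alone added to overnight-plated D2 PathHunter cells for 90 min at 37 C, with 57 uM final dopamine (EC100) defining full response. Beta-arrestin recruitment detected by chemiluminescent reagent, read after 1 h at ambient temperature.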
Six1-Eya2 blk = qHTS Assay for Inhibitors of the Six1/Eya2 Interaction. AlphaScreen GST-Six1/His-Eya2 binding, biochemical; stronger effect = lower value; control for the full effect not named in the record. Homeobox protein SIX1 (Homo sapiens) + Protein phosphatase EYA2 (Homo sapiens), …. actives 0.56% (n = 360,000). activity change, % (test concentration not listed); in the data active = activity change below about -65%; inconclusive = about -30% to -65%; inactive = above about -30%; also: % is scaled to controls: 0 for no effect and ±100 for the full control effect; compound concentration not given in the record
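GST-Six1 + His-Eya2 (5X stock: 250/500 nM); Tris pH 8.0, 300 mM NaCl, 0.05% BSA, 0.02% Tween 20; GSH donor/Ni acceptor beads; 1 h 37 °C dark; AlphaScreen readout.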
D2 potentiator = Beta-Arrestin HTS for Positive Allosteric Modulators of the Human D2 Dopamine Receptor: Potentiators; DiscoveRx D2 beta-arrestin cells, luminescence, 90 min; 100% = 57 uM dopamine signal; potentiation, % (concentration not given with the values); actives 0.23% (n = 360,000); AID 624464, 2012; active = potentiation of 50% or more; inconclusive = 30% to 50%; inactive = 30% or less;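 also: compound concentration not given in the record; tested on top of an EC20 dose of dopamine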
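PathHunter beta-arrestin assay in DiscoveRx D2 cells. Compounds were added with an EC20 of dopamine (50 nM final) for 90 min at 37 deg C. Luminescence was read 1 h after detection reagent, with 57 uM dopamine as the EC100 control.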
Numbers without * were called inactive; ? = inconclusive; . = not tested or not shown; & = joins results of further samples; [ ] = dose if it differs, or a comment.

SMILES	PINK1 modulator	TRPML1 agonist	CtBP-E1A blk	D2 ag	Six1-Eya2 blk	D2 potentiator
NC(=O)C1CCN(C(c2ccccc2Cl)c2nnnn2CC2CCCO2)CC1 (configuration not stated)	0.1%	0.1	16	-0.2	1	-2
Cc1nn(CCC(=O)O)c2nc(-c3cccnc3)cc(C(F)(F)F)c12	0.0%	-0.6	0	0.0	2	-13
CO/N=C/NC(=O)c1c(OC)ccnc1Oc1ccc(F)cc1	.	-0.2	-4	-2.0	-1	-4
CC1=CS(=O)(=O)CC1SC(=S)N(C)C1CCS(=O)(=O)C1 (configuration not stated)	2.5%	-0.5	-1	-0.4	5	-3
CCOC(=O)C1=C(CN2CCN(c3ccc(F)cc3)CC2)NC(=O)NC1c1cccs1 (configuration not stated)	-1.0%	-0.4	-12	-1.0	-21	-8
CSc1ccc(S(=O)(=O)Nc2ccc(NC(C)=O)cc2)cc1	0.4%	-0.3	-3	-4.5	-1	-16
O=C(Nc1ccc(Cl)cc1)C1C2CCCCC21 (configuration not stated)	-1.6%	0.3	.	-3.0	0	-7
COCCNC(=O)C1CCCN(Cc2cccc(Cl)c2)CC1 (configuration not stated)	2.3%	-0.5	6	-5.3	4	-9
O=c1[nH]c(=O)n(Cc2ccccc2)c2nc(-c3ccc(Oc4ccc(F)cc4)c([N+](=O)[O-])c3)n(CCO)c12	9.1%	1.0	-24	-7.6	-19	-23
Cc1cccc(CCNC(=O)CCS(=O)(=O)c2ccc3nc(C)sc3c2)c1	-0.3%	0.7	0	4.2	-1	-3
COc1cccc(CNS(=O)(=O)c2ccc3c(c2)C(C)(C)C(=O)N3C)c1	-0.3%	0.4	-4	1.4	-1	3
COc1cc(C(=O)O[C@H]2C/C(C)=C/CC[C@]3(C)O[C@@H]3C(O)C2C(C)C)cc(OC)c1OC (some centres not stated)	1.6%	1.5	-2	-0.1	3	0
O=C(CCC1CCCN(C(=O)c2ccoc2)C1)NCc1ccc(F)c(F)c1 (configuration not stated)	-0.5%	0.2	7	-2.2	5	-2
Cc1ccc(C)n1-c1sc2c(c1C#N)CCC(C)C2 (configuration not stated)	0.8%	-0.4	-2	?	-2	?
CCC(C(=O)Nc1ccc(C(=O)Nc2ccccc2C(=O)O)cc1)c1ccccc1 (configuration not stated)	-0.3%	3.1	-81*	4.8	?	15
Cc1ccc(C(c2nnnn2CS(=O)(=O)c2ccc(C)cc2)N2CCN(c3ncccn3)CC2)cc1 (configuration not stated)	-1.6%	0.2	2	5.8	1	4
Nc1nc2nccc(-c3cccnc3)n2n1	0.2%	-0.1	2	-0.4	-3	-2
O=C(CNC(=S)N(CCCN1CCOCC1)Cc1cccs1)NCc1ccc(Cl)cc1	0.3%	0.9	.	0.5	2	-11
O=C(NCCN1CCCC1)C(c1ccccc1)c1ccccc1	1.3%	0.2	-16	-3.9	8	-6
COc1ccc(CN(C)CC(O)COC(c2ccc(OC)cc2)c2ccc(OC)cc2)cc1 (configuration not stated)	-0.2%	2.4	-9	1.1	-15	-7
O=C(CCSc1nc(-c2ccc3c(c2)OCO3)cc(C(F)(F)F)n1)NCc1ccco1	6.3%	2.1	7	-30	-3	-2
CCOC(=O)C1CCCN(C(=O)C2CCN(S(=O)(=O)c3c(C)noc3/C=C/c3ccccc3F)CC2)C1 (configuration not stated)	-0.7%&-0.3%	14&26	-1	-4.2	-1	1
O=C(CCCn1c(SCC(=O)NCCc2ccccc2)nc2ccccc2c1=O)NCC1CCCO1 (configuration not stated)	5.1%	-0.5	-1	-0.9	0	0
Cn1c(=O)[nH]c(=O)c2c1nc(NCCN)n2CCOc1ccccc1	-1.2%	-0.3	1	-2.4	-19	-10
Cc1cccc(C)c1NS(=O)(=O)c1ccc(-c2ccc(=O)[nH]n2)o1	-0.6%	-0.3	-2	-1.6	-3	-11
CCCCN(C)CCC(=O)Nc1ccc(Cl)cc1	-0.7%	1.6	-4	0.7	-2	-30
CCOC(=O)c1sc(=S)n(CC)c1NC(=O)CC	-2.3%[38.3 µM]	0.3	-3	0.7	-2	-3
COc1ccc(CNc2ncc(-c3ccc(Br)cc3)n2C)cc1OC	-1.1%	1.2	-9	-4.9	-7	-7
O=C(CNC(=O)c1cccs1)NCC(=O)OCc1ccccc1Br	1.3%	-1.1	0	-1.0	-11	3
O=C1C2C3C=CC(C4CC34)C2C(=O)N1c1cccc2ccccc12 (configuration not stated)	-0.1%	-0.1	2	-1.9	5	-1
COC(=O)C1CCN(C(=O)COC(=O)c2cccc(NS(=O)(=O)c3ccccc3)c2)CC1	0.3%	-0.9	-21	-1.5	-4	3
CC(=O)c1cc2c(cc1NC(=O)CSc1ccc(S(=O)(=O)N(C)C)cn1)OCO2	4.4%	0.6	15	-1.1	0	-16
O=C(Nc1cc(Cl)cc(Cl)c1)C1CCC(=O)N1Cc1ccccc1Cl (configuration not stated)	2.7%	-0.9	5	-0.2	0	-8
CC(C)(C)CNC(=O)C1(C)CCN1C(=O)c1ccccc1CCc1ccccc1 (configuration not stated)	0.5%	-0.7	5	-1.4	-2	-4
COc1ccc(C2CC(c3ccc(Br)cc3)=NN2C(=O)CCC(=O)O)cc1OC (configuration not stated)	-1.4%	-0.4	-8	-1.9	9	1
COc1ccc(S(=O)(=O)Nc2cccc3c2O[C@H](CN(C)Cc2ccncc2)[C@@H](C)CN([C@H](C)CO)C3=O)cc1	4.2%	-0.2	7	-4.0	-1	1

Already shown: an excerpt of the list.
SMILES	PINK1 modulator	TRPML1 agonist	CtBP-E1A blk	D2 ag	Six1-Eya2 blk	D2 potentiator
Cc1cccc(C)c1NS(=O)(=O)c1ccc(-c2ccc(=O)[nH]n2)o1	-0.6%	-0.3	-2	-1.6	-3	-11
CCCCN(C)CCC(=O)Nc1ccc(Cl)cc1	-0.7%	1.6	-4	0.7	-2	-30
CCOC(=O)c1sc(=S)n(CC)c1NC(=O)CC	-2.3%[38.3 µM]	0.3	-3	0.7	-2	-3
COc1ccc(CNc2ncc(-c3ccc(Br)cc3)n2C)cc1OC	-1.1%	1.2	-9	-4.9	-7	-7
O=C(CNC(=O)c1cccs1)NCC(=O)OCc1ccccc1Br	1.3%	-1.1	0	-1.0	-11	3
O=C1C2C3C=CC(C4CC34)C2C(=O)N1c1cccc2ccccc12 (configuration not stated)	-0.1%	-0.1	2	-1.9	5	-1
COC(=O)C1CCN(C(=O)COC(=O)c2cccc(NS(=O)(=O)c3ccccc3)c2)CC1	0.3%	-0.9	-21	-1.5	-4	3
CC(=O)c1cc2c(cc1NC(=O)CSc1ccc(S(=O)(=O)N(C)C)cn1)OCO2	4.4%	0.6	15	-1.1	0	-16
O=C(Nc1cc(Cl)cc(Cl)c1)C1CCC(=O)N1Cc1ccccc1Cl (configuration not stated)	2.7%	-0.9	5	-0.2	0	-8

Remaining list, next part.
SMILES	PINK1 modulator	TRPML1 agonist	CtBP-E1A blk	D2 ag	Six1-Eya2 blk	D2 potentiator
CC(=O)N1CCN(C(=O)CCc2c[nH]c3ccccc23)CC1	1.7%	-0.6	-3	-3.4	-1	6
CCOC(=O)N1CCN(C(=O)c2cccn3c(=O)c4cc(Br)ccc4nc23)CC1	-0.4%	0.6	16	4.2	9	-3
COCCN(C(=O)CSc1nc2nc(C)cc(C)n2n1)c1c(N)n(Cc2ccccc2)c(=O)[nH]c1=O	1.8%	-0.2	-15	-6.4	11	-16
CCCC1(c2ccsc2)NC(=O)NC1=O (configuration not stated)	0.0%	0.1	10	-2.0	5	-4
CCC(=O)NC(=S)Nc1cc(C(=O)O)ccc1OC	-2.9%	2.6	5	2.2	0	-2
Cc1cc(C)cc(Nc2nc3ccccc3c(=O)[nH]2)c1	-3.9%	4.3	21	3.9	23	-2
O=[N+]([O-])c1ccc(S(=O)(=O)Nc2ccncc2)cc1	-0.2%	-0.1	-1	13	9	2
CCN1C(=O)/C(=C2/C=CC=CN2C)SC1=S	4.6%	0.2	-29	-4.3	-28	1
CSc1ncnc2[nH]ccc12	-2.7%	1.1	3	-2.2	-1	-3
CCN(CC)CCCNc1cc(C)c(C#N)c2nc3ccccc3n12	1.2%	0.5	-2	-0.8	-1	-7
COc1ccc(OCC(=O)Nc2ccc(S(=O)(=O)N3CCN(C)CC3)cc2)cc1	-0.8%	0.4	0	0.2	-1	-8
COc1ccc(-c2cn(-c3ccccc3)c(=S)[nH]2)cc1OC	-1.4%	1.9	-13	?	-9	-8
CCCN1CCC(=O)N([C@H](CSc2ccc(Br)cc2)Cc2ccccc2)CC1	4.7%	1.2	0	-4.9	-16	-6
CCN(CC)S(=O)(=O)c1ccc(NC(=O)C(C)N(c2ccc(OC)cc2)S(C)(=O)=O)cc1 (configuration not stated)	7.8%[38.3 µM]	0.9	-1	-1.6	-2	-1
COCCCn1c(SCC(=O)N(C)C)nnc1-c1ccccc1	12%[38.3 µM]	-0.4	4	0.5	1	-9
CCC(=O)NCc1csc(-c2cccs2)n1	-1.6%	1.2	-6	-0.8	1	-8
Cc1ccc(NC(=O)c2nccnc2C(=O)O)cc1C	3.5%	-0.4	10	-1.4	-3	-4
CCN(CC)C(=O)Cc1cn(C)c2ccccc12	1.1%	0.1	7	-3.6	4	-1
Cc1ccccc1C(=O)N1CCC(C(=O)Nc2cccc(S(=O)(=O)N3CCCCC3)c2)CC1	-0.3%	0.8	2	-2.9	1	2
O=C1[C@H]2[C@@H](c3ccccc3)N[C@]3(CCCN(CC4CCCCC4)C3=O)[C@H]2C(=O)N1Cc1ccccc1	3.1%	0.7	-9	-8.3	30	-4
O=C(Nc1cc(C(=O)N2CCOCC2)ccc1N1CCCC1)c1cccs1	.	0.9	18	-0.8	4	3
COc1cccc(Nc2nc(C(N)Cc3ccccc3)cs2)n1 (configuration not stated)	-1.2%	-0.1	-25	-8.3	-19	-8
CC/C(=N/NC(=O)c1ccc(Br)cc1)c1ccc(OCCN2CCOCC2)cc1	0.5%	-0.8	-8	-7.5	-7	-13
CCNc1nn2ccccc2c1/C=C(\C#N)C(=O)OCC	0.2%	0.4	.	-3.5	-2	-18
